Bioassay records (PubChem)
Beta apoptosis: inhibitors of cytokine-induced beta cell apoptosis, primary screen, luminescence | INS-1E cytokine-induced death, ATP luminescence, 48 h; percent of positive-control rescue, neutral wells zero | protection from apoptosis, % (concentration not given with the values) | 300,000 tested, 0.8% active | AID 435005, 2010;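 active = all replicates at 75% or more, or half of them and the mean; inconclusive = half reach 75% but not the mean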;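 also: 0% = cytokine-treated negative control wells and 100% = positive control rescue; higher means more ATP so stronger rescue from cytokine killing; wells of about 40 µL received 100 nL stock; the first replicate is given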
RanGTP-Imp inh: inhibitors of RanGTP-importin-beta interaction, primary screen, biochemical, FRET, CFP-Ran, YFP-importin-beta, homogeneous; Ran GTPase (GTP-bound) - importin-beta complex; cell-free CFP-Ran/YFP-importin-beta FRET ratio; inhibition, % (no concentration beside the values); 300,000 tested, 1.1% active; AID 2216, 2009;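 active = most replicates above 15%; inconclusive = exactly half above 15%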;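 also: 0% = DMSO wells and 100% = Ran loaded with GDP instead of GTP; wells of about 40 µL received 100 nL stock; the first replicate is given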
rRNA inh HTS: reduced GFP signal of wild-type E. coli, primary screen, bacterial rRNA inhibitor project, GFP/RFP fluorescence, OD600, single point; E. coli WT GFP vs humanized-ribosome RFP mutants, 24 h; hits give low values; DMSO median 0, no signal -100; GFP signal change (wild-type ribosome), % (no concentration beside the values); 350,000 tested, 1.6% active; AID 720706, 2013;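 active = significant combined selectivity score with lowered wild-type GFP, culture density cut under 30%, mutant RFP and density less affected; inactive = any of these conditions unmet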; also: one replicate is shown; some compounds called inactive have numbers as strong as hits
MLL AF4-AF9 inh: inhibitors of AF4 peptide binding to AF9, primary screen, biochemical, AlphaScreen, biotin-AF4 peptide, FLAG-AF9, single point; inhibition, % at 10 µM; 350,000 tested, 0.47% active; AID 651704, 2012;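 active = every replicate reaching a set inhibition limit, whatever the replicate mean, cut at about 25% in these data; inconclusive = mean inhibition reaches that limit but some replicates miss it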;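 also: 0% = plate neutral control median and 100% = total signal loss; the record names both 10 and 1 µM as test concentration; the first replicate is given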
Target sequence (P42568 whole entry, looked up): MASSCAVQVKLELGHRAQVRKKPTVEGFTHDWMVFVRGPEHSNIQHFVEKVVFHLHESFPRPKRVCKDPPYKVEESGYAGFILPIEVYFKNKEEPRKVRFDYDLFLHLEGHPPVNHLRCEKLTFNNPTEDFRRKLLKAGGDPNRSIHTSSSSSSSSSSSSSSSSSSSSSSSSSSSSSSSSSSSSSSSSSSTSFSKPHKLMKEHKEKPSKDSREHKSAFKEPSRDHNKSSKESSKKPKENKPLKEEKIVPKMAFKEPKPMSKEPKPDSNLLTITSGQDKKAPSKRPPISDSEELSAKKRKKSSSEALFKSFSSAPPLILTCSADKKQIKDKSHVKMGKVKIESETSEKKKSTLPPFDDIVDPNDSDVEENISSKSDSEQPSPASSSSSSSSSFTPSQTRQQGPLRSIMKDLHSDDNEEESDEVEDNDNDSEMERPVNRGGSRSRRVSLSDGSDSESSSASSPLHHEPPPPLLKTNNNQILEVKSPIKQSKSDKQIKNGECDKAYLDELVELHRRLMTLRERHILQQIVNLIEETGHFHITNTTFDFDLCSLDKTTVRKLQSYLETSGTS
Vif A3G: inhibitors of Vif binding to APOBEC3G peptide, primary screen, biochemical, TR-FRET, GST-Vif 1-94, biotin-A3G peptide, dose response retest (AID 1117319); Virion infectivity factor (Human immunodeficiency virus type 1 group M subtype B (isolate …; one-dose inhibition, %; IC50 in µM for titrated hits; 260,000 tested, 0.57% active; TR-FRET GST-Vif / biotin-A3G peptide binding; higher % means a stronger effect; test concentration not given here; strong numbers were not always called active;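 active = above the screen mean plus three standard deviations and confirmed in dose response; inconclusive = results disagree or hit not tested in dose response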;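 also: Vif residues 1-94 fused to GST binding biotinylated APOBEC3G peptide 110-148; 0% = full assay without inhibitor and 100% = GST in place of GST-Vif; retest series ran down from 100 µM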
Calb FLC: C. albicans growth inhibition with fluconazole, primary screen, CaCi-2 strain, Alamar Blue fluorescence; C. albicans CaCi-2 (fluconazole-resistant clinical isolate) + fluconazole, 48 h; growth inhibition, % (concentration not given with the values); 300,000 tested, 0.57% active; AID 1979, 2009;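 active = most replicates above 75%; inconclusive = exactly half above 75%; inactive = most below 75%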;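 also: all wells also contain fluconazole at 8 µg/ml as a sub-toxic cotreatment; 0% = median of DMSO wells and 100% = median of geldanamycin control wells; wells of about 8 µL received 7.5 nL stock; the first replicate is given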
T cruzi repl: inhibitors of intracellular T. cruzi growth, primary screen, luminescence, NIH3T3 host cells; 300,000 tested, 1.4% active; inhibition, % (no concentration beside the values); T. cruzi beta-gal in NIH3T3, 90 h; AID 1885, 2009;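 active = mean inhibition across valid replicates above about 55%, limit read from the data; inconclusive = mean below that limit but half or more replicates reach it; inactive = mean below it, under half of replicates reach it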;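 also: signal also drops with host cell toxicity which is not excluded here; 0% = plate median of DMSO wells and 100% = zero luminescence signal; higher percent means less beta-gal luminescence so fewer parasites; stock transfer was 50 nL into about 50 µL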
A1 inh: caspase 3/7 activation in MEF A1-2A-BIM cells, primary screen, A1 inhibitor project, cell-based, luminescence, HTS; Caspase-Glo 3/7 luminescence, 3 h; percent of clofoctol response, vehicle zero; caspase activation, % (concentration not given with the values); 330,000 tested, 0.066% active; AID 2462, 2010;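 active = over half of replicate activation scores above 10%, or exactly half above 10 with the replicate mean above 10; inconclusive = replicate mean below 10 yet half the replicates above 10; inactive = over half of replicates below 10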;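 also: wells of about 30 µL received 50 nL stock; many hits fall short of the cut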
rRNA inh HTS OD600: recorded beside rRNA inh HTS, whose call it bears; OD600 change, %; measured here: OD600 growth;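 optical density of the mix in the first replicate; 0 = DMSO median and -100 = no signal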
rRNA inh HTS RFP: also measured in rRNA inh HTS; calls as there; RFP signal change, %; measured here: RFP humanized mutant strains;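 first replicate; 0 = DMSO median and -100 = no signal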
Starred values were filed as active, the others as inactive; ? = inconclusive; · = no result given. This is a subset; the hit share may differ from the screen's.

SMILES	Beta apoptosis	RanGTP-Imp inh	rRNA inh HTS	rRNA inh HTS OD600	rRNA inh HTS RFP	MLL AF4-AF9 inh	Vif A3G	Calb FLC	T cruzi repl	A1 inh
Cc1cc(C)c2nc(NC(=O)c3ccco3)sc2c1	4	2.6	3	-1	-1.8	-1.2	·	3	23	-5.5
Cn1cccc1Cc1nnc(SCC(=O)N2CCCCCC2)n1CCc1ccccc1	0	?	0	4	0.3	3.0	3%	11	1	-0.4
CC12CCC(C(=O)N3CCN(Cc4ccccc4)CC3)(OC1=O)C2(C)C (centres undefined)	1	-5.1	5	-2	-1.3	-4.0	1%	6	16	0.7
CN1CCN(C2=Cc3ccc(Cl)cc3Sc3ccc(F)cc32)CC1	9	6.9	·	·	·	·	-1%	29	32	0.4
COc1ccc(C(C)=O)cc1CC(=O)Nc1ccc2c(c1)CCC2	1	-0.5	-1	-19	0.2	-3.2	?	28	4	1.6
O=C(CN1C(=O)NC2(CCCC2)C1=O)NC(c1ccccc1)c1ccccc1	3	·	-1	2	-1.6	1.0	-2%	·	·	1.0
Cc1ccc(Oc2ccc(NC(=O)CSc3n[nH]c(N)n3)cc2)cc1	-1	-0.2	·	·	·	·	10%	45	9	-0.7
C=CCOc1ccc(Br)cc1CNC(C)(C)CO	-1	-0.4	·	·	·	-1.1	-11%	-14	-7	0.5
O=S(=O)(c1ccc(Cl)cc1)c1nc(-c2ccccc2F)oc1NCCN1CCOCC1	·	1.3	·	·	·	·	-2%	-8	23	-0.5
Cc1ccc(-c2n[nH]c(=S)n2/N=C/c2ccc(C)s2)cc1	4	0.1	·	·	·	·	1%	30	-7	1.2
O=C1CCCc2c1sc1nc3n(c(=O)c21)CCCCC3	-3	-4.3	·	·	·	·	2%	-5	4	-0.4
O=C(NCc1ccco1)c1cnccn1	-5	-1.0	·	·	·	·	22%	-4	1	0.4
COc1ccc(/C=C(/C(=O)Nc2ccccc2C(=O)NC(C)C)c2ccccc2)cc1	·	2.3	·	·	·	·	-1%	-2	28	-0.2
O=C(c1ccc(F)cc1)c1c[nH]c(C(=O)NCc2cccnc2)c1	-4	-3.1	·	·	·	·	-6%	2	-43	0.0
Cc1ccc(C2(c3noc(CN4C[C@@H](C)O[C@@H](C)C4)n3)CCCC2)cc1	-2	0.9	2	1	-0.4	0.1	-4%	6	8	0.0
CC(=O)C1=C(C)NC2=C(C(=O)c3ccccc32)C1c1ccccc1 (centres undefined)	4	-0.6	-25	-25	5.6	9.8	4%	8	-4	0.5
CCCCCSc1nnc2c(n1)OC(c1cccn1C)N(C(C)=O)c1ccccc1-2 (centres undefined)	7	-1.8	·	·	·	·	1%	40	-22	1.0
CN(C)c1ccc(C(=S)N2CCCCC2)cc1	-4	4.1	7	-3	-1.0	3.3	1%	-5	0	-0.5
O=c1cc(-c2ccc(C(F)(F)F)cc2)oc2ccccc12	0	·	9	-5	-7.3	4.2	·	·	·	-1.8
CC1CCc2c(sc3ncnc(SC(C)C(=O)NCC4CCCO4)c23)C1 (centres undefined)	3	-1.5	-18	-18	-0.5	-1.7	-16%	-4	17	-0.6
CCN(Cc1ccccc1)C(=O)CCCOc1ccccc1	·	?	·	·	·	·	-3%	0	0	0.6
CCSc1nnc(NC(=O)[C@@H](NC(=O)c2cccc(C)c2)C(C)C)s1	-5	0.8	·	·	·	·	10%	-18	-7	-0.9
CCOC(=O)c1sc2nc(SC)nc(-c3ccccc3)c2c1N	1	-1.4	·	·	·	·	?	-8	10	0.8
O=C(O)C1CCCN(CCC=C(c2ccccc2)c2ccccc2)C1 (centres undefined)	·	7.0	·	·	·	-1.1	·	-2	-5	-0.5
CCC(=O)Nc1c2c(nn1-c1ccc(C)cc1)CS(=O)(=O)C2	-8	-0.5	5	5	-1.5	·	7%	-1	-8	1.2

One compound at a time, from the list above.
O=C(O)C1CCCN(CCC=C(c2ccccc2)c2ccccc2)C1 (centres undefined) in the list: Beta apoptosis: ·; RanGTP-Imp inh: 7.0; rRNA inh HTS: ·; rRNA inh HTS OD600: ·; rRNA inh HTS RFP: ·; MLL AF4-AF9 inh: -1.1; Vif A3G: ·; Calb FLC: -2; T cruzi repl: -5; A1 inh: -0.5
O=C(CN1C(=O)NC2(CCCC2)C1=O)NC(c1ccccc1)c1ccccc1 in the list: Beta apoptosis: 3; RanGTP-Imp inh: ·; rRNA inh HTS: -1; rRNA inh HTS OD600: 2; rRNA inh HTS RFP: -1.6; MLL AF4-AF9 inh: 1.0; Vif A3G: -2%; Calb FLC: ·; T cruzi repl: ·; A1 inh: 1.0

Remaining list, next part:
SMILES	Beta apoptosis	RanGTP-Imp inh	rRNA inh HTS	rRNA inh HTS OD600	rRNA inh HTS RFP	MLL AF4-AF9 inh	Vif A3G	Calb FLC	T cruzi repl	A1 inh
Cc1nc2ccc([N+](=O)[O-])cc2c(=O)n1Cc1ccc(Cl)cc1	·	-3.1	7	6	0.7	-2.1	·	-6	38	1.0
S=c1[nH]nc(-c2cc3ccccc3o2)n1Cc1ccccc1	-6	-2.5	·	·	·	·	-1%	-1	2	-0.1
CC1CN(CCCCOc2ccc3ccccc3c2)CC(C)O1 (centres undefined)	-3	-1.6	-18	-21	-1.1	-2.7	3%	-12	12	-0.2
O=C(O)c1ccc(N=NN2CCOCC2)cc1	-3	1.3	·	·	·	·	3%	3	-3	0.7
O=C(c1ccc(CSc2ccccc2)cc1)N1CCCCCC1	0	0.0	·	·	·	·	-2%	-1	23	-5.0
COc1ccc(C(CNC(=O)CNC(=O)c2ccccc2)N2CCCC2)cc1 (centres undefined)	-6	·	6	14	1.8	0.9	-9%	·	·	-1.9
COc1ccccc1/C=C1\SC(=O)N(CCC(=O)NCCCn2ccnc2)C1=O	125*	?	-7	-9	1.0	1.6	·	-1	-5	1.0
Cc1ccc(-n2c(SCC(=O)NCc3ccco3)nc3sc(C)c(C)c3c2=O)cc1	6	1.1	·	·	·	·	-35%	3	26	0.0
O=C(Nc1ccccc1N1CCOCC1)c1ccc2c(c1)OCCO2	-5	3.8	10	7	-1.6	-2.4	-4%	25	-1	1.2
NC(=O)c1ccccc1NC(=O)c1ccoc1	-2	?	0	-11	0.7	-3.0	3%	3	-19	-0.1
CC(Sc1nc2ncc(Cl)cc2[nH]1)C(=O)Nc1ccc(C(N)=O)cc1 (centres undefined)	5	1.6	14	10	3.2	-1.4	-8%	6	-4	0.9
N/C(=C\C(=O)c1cc(Cl)ccc1O)C(Cl)(Cl)Cl	12	?	-13	6	-3.8	-3.3	17%	0	53	1.8
CCOC(=O)N1CCN(CC(O)COc2ccc(C(C)C)c(C)c2)CC1 (centres undefined)	-10	-5.0	-13	-13	-4.5	1.3	-16%	-9	18	0.1
Nc1nnc(SCCOc2ccccc2)s1	-5	5.2	-5	0	-3.0	6.2	2%	-8	-14	-2.4
CCN(CCCCN1C(=O)c2ccccc2C1=O)c1ccc2c(c1)C(=O)N(C)C2=O	·	-29	·	·	·	·	-3%	1	-9	0.8
CCc1c(C)c(C#N)c2nc3ccccc3n2c1NCc1ccccn1	-1	12	-2	0	4.2	-3.2	-16%	5	23	0.2
CCOC(=O)C1CCCN(C(=O)c2sc3nc4n(c(=O)c3c2C)CCC4)C1 (centres undefined)	0	·	5	3	-0.4	1.2	5%	·	·	0.6
N#C/C(=N\O)c1nc2ccccc2[nH]1	0	2.6	·	·	·	·	9%	-2	-17	0.6
COc1ccc(NC(=O)c2ccc(CN(c3cc(Cl)ccc3C)S(=O)(=O)c3ccccc3)cc2)cc1OC	-2	?	·	·	·	·	13%	-10	·	0.7
O=C(NC(=S)Nc1ccc(S(=O)(=O)NC2CCCCC2)cc1)c1cccs1	4	5.3	-22	-40	15	4.4	·	63	10	0.0
C/C(Cn1nnc2ccccc21)=N\OC(=O)c1ccccc1C	1	1.1	·	·	·	·	-2%	2	-1	-0.4
COc1ccc(-c2ocnc2C(=O)Nc2ccc(N3CCOCC3)cc2N2CCOCC2)cc1OC	13	0.6	-9	-11	-0.1	18	·	1	-3	-0.1
Cc1ccc2c(c1)[C@H]1[C@H](CO2)[C@H](c2ccccc2)[C@]2(C)C(=O)Nc3ccc(Br)cc3C(=O)N12	7	·	9	0	7.0	-3.0	·	·	·	-0.9
Cc1ccc(S(=O)(=O)N2CCCCC2)cc1NC(=O)COC(=O)c1cccn1C	-2	·	-22	-25	-5.9	-9.5	·	·	·	0.0
CS(=O)(=O)N(CC(=O)N1CCN(c2ccccc2F)CC1)c1cc(C(F)(F)F)ccc1Cl	4	-2.2	·	·	·	·	-5%	8	6	0.0
O=C(/C=C/c1ccc(S(=O)(=O)N2CCOCC2)cc1)NC(CO)C(O)c1ccc([N+](=O)[O-])cc1 (centres undefined)	-4	·	·	·	·	1.3	22%	·	·	-0.5
Cc1cc(C)cc(Oc2coc3cc(OC(=O)c4cccnc4)ccc3c2=O)c1	-4	4.8	·	·	·	·	·	1	-6	-0.1
CC1(CC(=O)O)SC(=O)NC1=O (centres undefined)	-4	-2.2	·	·	·	·	6%	-2	-17	-0.8

Arranged by length of the SMILES (largest number first): some entries from above.
SMILES	Beta apoptosis	RanGTP-Imp inh	rRNA inh HTS	rRNA inh HTS OD600	rRNA inh HTS RFP	MLL AF4-AF9 inh	Vif A3G	Calb FLC	T cruzi repl	A1 inh
COc1ccc(C(CNC(=O)CNC(=O)c2ccccc2)N2CCCC2)cc1 (centres undefined)	-6	·	6	14	1.8	0.9	-9%	·	·	-1.9
O=C(Nc1ccccc1N1CCOCC1)c1ccc2c(c1)OCCO2	-5	3.8	10	7	-1.6	-2.4	-4%	25	-1	1.2
NC(=O)c1ccccc1NC(=O)c1ccoc1	-2	?	0	-11	0.7	-3.0	3%	3	-19	-0.1

Fetched one by one from above, two records:
SMILES	Beta apoptosis	RanGTP-Imp inh	rRNA inh HTS	rRNA inh HTS OD600	rRNA inh HTS RFP	MLL AF4-AF9 inh	Vif A3G	Calb FLC	T cruzi repl	A1 inh
Cc1ccc(-n2c(SCC(=O)NCc3ccco3)nc3sc(C)c(C)c3c2=O)cc1	6	1.1	·	·	·	·	-35%	3	26	0.0
Nc1nnc(SCCOc2ccccc2)s1	-5	5.2	-5	0	-3.0	6.2	2%	-8	-14	-2.4
